HIV Env fusion – inhibitors of HIV-1 Env-driven cell-cell fusion, primary screen, HeLa-JRFL effector, CEM21 target cells, luciferase; actives 1.1% (n = 360,000); AID 651610, 2012; inhibition, % at 12.3 µM;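 active = mean replicate inhibition score of at least 50 and every replicate individually at or above 50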;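 also: 0% = plate neutral controls and 100% = maraviroc near 300 nM; one replicate is shown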
Yeast UUG start – modulators of yeast start codon fidelity, primary screen, whole organism, S. cerevisiae, single point, plate reader; actives 0.13% (n = 350,000); S. cerevisiae UUG-firefly luciferase reporter, luminescence/redox ratio; AID 602363, 2012; activity score, % at 18.7 µM;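 active = replicate mean at a twofold rise or more, about +100% in these data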;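 also: firefly luciferase made from a UUG start codon reports start codon fidelity; reporter light over untreated wells divided by growth signal over untreated wells; some hits fall short of that in this replicate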
* marks the source's active call; other numbers are inactive results; & = joins results of further samples; [ ] = remark or other dose. Not all compounds are listed, so the mix of outcomes need not match the whole.

Yeast UUG start,HIV Env fusion,structure
27.3,-6.5[16.7 µM],CCC(=O)Nc1ccc2c(c1)OC[C@H](C)N(C(=O)c1ccccn1)C[C@@H](C)[C@H](OC)CN(C)C2=O
7.3,23.5[16.7 µM],Cc1noc(C)c1S(=O)(=O)Nc1ccc2c(c1)C(=O)N([C@@H](C)CO)C[C@H](C)[C@@H](CN(C)Cc1ccc(C(=O)Nc3ccccc3N)cc1)OCCCC[C@@H](C)O2
2.5,-5.6[16.7 µM],COc1ccc(-c2ccc([C@@H]3[C@@H](C#N)N(C(=O)C4CCC4)[C@@H]3CO)cc2)cc1
15.0,13.1[16.7 µM],C[C@@H]1CN([C@H](C)CO)C(=O)c2cc(C3=CCCCC3)cnc2O[C@@H]1CN(C)C(=O)c1cccnc1
7.3,-6.9[16.7 µM],CCCC(=O)Nc1ccc2c(c1)C(=O)N(C)[C@@H]1CC[C@@H](CC(=O)NCc3ccccc3)O[C@@H]1CO2
4.4,-25.1[16.7 µM],C[C@@H]1CCCCO[C@H](CN(C)C(=O)C2CCCCC2)[C@@H](C)CN([C@H](C)CO)C(=O)c2cc(NC(=O)Cc3ccccc3)ccc2O1
-0.8,9.9[16.7 µM],COc1ccc(S(=O)(=O)N(C)C[C@@H]2Oc3ccc(N(C)C)cc3CC(=O)N([C@H](C)CO)C[C@H]2C)cc1
-8.0,2.8[16.7 µM],Cc1noc(C)c1NC(=O)N(C)C[C@H]1Oc2ccc(NC(=O)C3CC3)cc2C(=O)N([C@@H](C)CO)C[C@@H]1C
-8.4,31.5[16.7 µM],COc1ccc(C#Cc2ccc3c(c2)[C@]2(C(=O)N3)[C@H](C(N)=O)[C@H]3C(=O)O[C@H](c4ccccc4)[C@H](c4ccccc4)N3[C@@H]2c2ccc(OCCO)cc2)cc1
2.6,-3.0[16.7 µM],O=C(Nc1cc(F)ccc1F)N[C@H]1CC[C@H](CCNC(=O)c2cnccn2)O[C@H]1CO
-3.0,5.3[16.7 µM],COc1ccc(NC(=O)N(C)C[C@H]2OCCCC[C@@H](C)Oc3ccc(NS(=O)(=O)c4ccc(Cl)cc4)cc3C(=O)N([C@@H](C)CO)C[C@H]2C)cc1
-22.0,-19.2[16.7 µM],C[C@@H]1CN([C@H](C)CO)S(=O)(=O)c2ccc(/C=C/c3ccccc3)cc2O[C@@H]1CN(C)C(=O)Nc1ccc(F)cc1
-3.6,13.3[16.7 µM],Cc1noc(C)c1NC(=O)Nc1ccc2c(c1)CC(=O)N([C@H](C)CO)C[C@@H](C)[C@H](CN(C)Cc1ccccc1)O2
-12.3,-10.7[16.7 µM],CCC(=O)N[C@H]1CC[C@@H](CCNC(=O)Nc2ccc(F)cc2)O[C@H]1CO
8.6,-0.8[16.7 µM],CC(C)NC(=O)Nc1ccc2c(c1)C(=O)N([C@H](C)CO)C[C@@H](C)[C@@H](CN(C)C(=O)Nc1ccc3c(c1)OCO3)O2
-7.7,1.7[16.7 µM],C[C@@H]1CN([C@H](C)CO)C(=O)c2cc(NC(=O)Cc3cn(C)c4ccccc34)ccc2O[C@@H]1CN(C)C(=O)Nc1ccc(C(F)(F)F)cc1
8.6,26.2[16.7 µM],CO[C@H]1CN(C)C(=O)c2ccc(NC(=O)Nc3ccccc3F)cc2OC[C@H](C)N(C(C)=O)C[C@H]1C
-1.5,7.1[16.7 µM],O=C(Nc1ccccc1F)N[C@@H]1C=C[C@@H](CC(=O)N2CCCCC2)O[C@@H]1CO
6.8,-24.5[16.7 µM],C[C@H]1CN([C@@H](C)CO)C(=O)Cc2cc(NC(=O)Cc3cn(C)c4ccccc34)ccc2O[C@H]1CN(C)S(=O)(=O)c1cn(C)cn1
10.1,10.5[16.7 µM],C[C@@H]1CN([C@H](C)CO)C(=O)Cc2cc(NC(=O)Nc3cccc4ccccc34)ccc2O[C@@H]1CN(C)C(=O)NC1CCCCC1
-5.2,27.2[16.7 µM],C/C=C/c1ccc2c(c1)O[C@@H](CN(C)C)[C@H](C)CN([C@H](C)CO)S2(=O)=O
-8.1,-11.2[16.7 µM],CCS(=O)(=O)NCC[C@H]1CC[C@H](NC(=O)Nc2cc(Cl)cc(Cl)c2)[C@H](CO)O1
-12.1,-0.1[16.7 µM],C/C=C/c1ccc2c(c1)O[C@H](CN(C)Cc1ccccn1)[C@H](C)CN([C@H](C)CO)S2(=O)=O
-5.4,11.6[16.7 µM],C[C@H]1CN([C@@H](C)CO)C(=O)Cc2cc(NC(=O)Nc3cccc4ccccc34)ccc2O[C@H]1CN(C)C(=O)NC1CCCCC1
-3.2,-0.5[16.7 µM],CC(C)NC(=O)N(C)C[C@@H]1Oc2ccc(NC(=O)C3CC3)cc2CC(=O)N([C@H](C)CO)C[C@@H]1C

Record cards, as listed above. Order of values: Yeast UUG start	HIV Env fusion
C/C=C/c1ccc2c(c1)O[C@H](CN(C)Cc1ccccn1)[C@H](C)CN([C@H](C)CO)S2(=O)=O is listed with -12.1	-0.1[16.7 µM]
Cc1noc(C)c1NC(=O)Nc1ccc2c(c1)CC(=O)N([C@H](C)CO)C[C@@H](C)[C@H](CN(C)Cc1ccccc1)O2 is listed with -3.6	13.3[16.7 µM]
C[C@H]1CN([C@@H](C)CO)C(=O)Cc2cc(NC(=O)Nc3cccc4ccccc34)ccc2O[C@H]1CN(C)C(=O)NC1CCCCC1 is listed with -5.4	11.6[16.7 µM]

Remaining list, next part:
Yeast UUG start,HIV Env fusion,structure
9.1,1.8[16.7 µM],C[C@@H]1CN([C@@H](C)CO)S(=O)(=O)c2ccc(C#CC3CC3)cc2O[C@@H]1CN(C)S(C)(=O)=O
2.7,9.2[16.7 µM],O=C(NCC[C@H]1CC[C@@H](NS(=O)(=O)c2cccc(F)c2)[C@@H](CO)O1)C1CCCCC1
-18.7,-15.9[16.7 µM],C[C@H](CO)N1C[C@H](C)[C@H](CN(C)S(=O)(=O)c2cccs2)OCCCC[C@H](C)Oc2ccc(NC(=O)Cc3ccccc3)cc2C1=O
-1.5,42.8[16.7 µM],C[C@@H]1CN([C@H](C)CO)C(=O)c2cc(NC(=O)Nc3ccc(C(F)(F)F)cc3)ccc2O[C@@H](C)CCCCO[C@H]1CN(C)C(=O)C1CCCCC1
13.6,-4.4[16.7 µM],COc1ccc(S(=O)(=O)Nc2ccc3c(c2)C(=O)N([C@H](C)CO)C[C@@H](C)[C@@H](CN(C)C(=O)Cc2ccccc2)OCCCC[C@H](C)O3)cc1
3.4,-8.0[16.7 µM],CNC[C@@H]1OCCCC[C@@H](C)Oc2ccc(NC(=O)Cc3ccccc3)cc2C(=O)N([C@H](C)CO)C[C@H]1C
13.0,12.7[16.7 µM],COc1ccccc1-c1ccc([C@H]2[C@@H](C#N)N(C(=O)C3CCC3)[C@H]2CO)cc1
0.4,-10.8[16.7 µM],CCCNC(=O)N(C)C[C@H]1Oc2cc(-c3cccnc3)ccc2S(=O)(=O)N([C@@H](C)CO)C[C@@H]1C
7.7,-1.7[16.7 µM],C[C@@H]1CN([C@H](C)CO)C(=O)c2cc(C#C[C@@H](C)O)cnc2O[C@@H]1CN(C)C(=O)Nc1ccc(C(F)(F)F)cc1
-0.9,-9.8[16.7 µM],C[C@H]1CN([C@@H](C)CO)S(=O)(=O)c2ccc(C3=CCCC3)cc2O[C@H]1CN(C)CC1CC1
6.8,7.0[16.7 µM],Cc1ccc(S(=O)(=O)NCC[C@H]2CC[C@@H](NC(=O)CCN3CCCCC3)[C@@H](CO)O2)cc1
-0.2,6.6[16.7 µM],C[C@H]1CN([C@@H](C)CO)C(=O)c2cc(/C=C/c3ccccc3)cnc2O[C@H]1CN(C)C(=O)c1cnccn1
-10.4,2.4[16.7 µM],C[C@@H]1CCCCO[C@@H](CN(C)S(=O)(=O)c2ccc(Cl)cc2)[C@@H](C)CN([C@@H](C)CO)C(=O)c2cc(NC(=O)Nc3ccccc3)ccc2O1
7.9,-6.7[16.7 µM],CCCC#Cc1ccc([C@H]2[C@@H](C#N)N(C(=O)C3CCC3)[C@H]2CO)cc1
-8.7,-47.7[16.7 µM],C[C@@H]1CN([C@@H](C)CO)C(=O)c2cc(NS(=O)(=O)c3ccccc3)ccc2O[C@@H](C)CCCCO[C@@H]1CN(C)S(=O)(=O)c1ccc(F)cc1
2.0,-54.6[16.7 µM],CC(C)NC(=O)Nc1ccc2c(c1)C(=O)N([C@@H](C)CO)C[C@H](C)[C@@H](CN(C)S(=O)(=O)c1cccs1)OCCCC[C@@H](C)O2
9.9,7.7[16.7 µM],CCC(=O)N[C@@H]1C=C[C@H](CC(=O)NCc2cc(F)cc(F)c2)O[C@@H]1CO
-4.1,11.8[16.7 µM],COc1ccc(NC(=O)Nc2ccc3c(c2)C(=O)N([C@@H](C)CO)C[C@H](C)[C@@H](CN(C)C(=O)C2CCCCC2)OCCCC[C@@H](C)O3)cc1
18.2,-67.9[16.7 µM],C=CC1c2cc(O)c(OC)cc2CCN1Cc1sc2ccccc2c1Cl (stereo unspecified)
-19.7,0.3[16.7 µM],CCCC(=O)Nc1ccc2c(c1)C(=O)N(C)[C@H]1CC[C@H](CC(=O)NCCOC)O[C@@H]1CO2
-7.2,-5.9[16.7 µM],O=C(CCN1CCCCC1)N[C@@H]1CC[C@H](CCn2cc(-c3ccc(F)cc3)nn2)O[C@H]1CO
-2.0,-0.7[16.7 µM],O=C(C[C@@H]1C=C[C@H](NC(=O)c2ccc(F)cc2)[C@H](CO)O1)NCc1ccncn1
3.0,-4.1[16.7 µM],O=C(C[C@@H]1CC[C@H](NC(=O)CC2CC2)[C@H](CO)O1)NCc1ccc(-c2ccccc2)cc1
2.2,9.2[16.7 µM],COc1ccc(-c2cnc3c(c2)C(=O)N([C@@H](C)CO)C[C@H](C)[C@@H](CN(C)C(=O)C2CCC2)O3)cc1
-10.7,-14.4[16.7 µM],CN(C)C(=O)C[C@H]1CC[C@H](NC(=O)Nc2cccc(F)c2)[C@@H](CO)O1
1.9,7.7[16.7 µM],CCCC(=O)Nc1ccc2c(c1)C(=O)N(C)C[C@@H](OC)[C@@H](C)CN(C)[C@@H](C)CO2
-13.8,1.1[16.7 µM],CN(C)CCCNC(=O)C[C@H]1CC[C@@H]2[C@H](COC[C@@H](O)CN2C(=O)c2ccncc2)O1
-3.1,15.6[16.7 µM],COc1cccc(S(=O)(=O)N(C)C[C@@H]2Oc3ncc(C#CC(C)C)cc3C(=O)N([C@@H](C)CO)C[C@@H]2C)c1
-5.0,-7.8[16.7 µM],C[C@H]1CN([C@@H](C)CO)C(=O)c2cc(NS(C)(=O)=O)ccc2O[C@@H]1CN(C)CC1CCCCC1
-10.7,17.6[16.7 µM],COCC(=O)Nc1ccc2c(c1)[C@@H]1C[C@@H](CC(=O)N3CCN(C)CC3)O[C@H](CO)[C@@H]1O2
5.1,3.1[16.7 µM],CC(C)C#Cc1ccc2c(c1)O[C@H](CN(C)C(=O)C1CC1)[C@@H](C)CN([C@@H](C)CO)S2(=O)=O
9.0,24.1[16.7 µM],CCNC(=O)C[C@H]1CC[C@@H]2[C@@H](COc3ccc(NC(=O)c4ccc(C(F)(F)F)cc4)cc3C(=O)N2C)O1
-2.9,2.8[16.7 µM],C[C@H](CO)N1C[C@H](C)[C@H](CN(C)C(=O)Nc2ccc3c(c2)OCO3)Oc2ccc(NC(=O)Cc3ccccc3)cc2CC1=O
-0.7,-12.8[16.7 µM],C/C=C/c1ccc2c(c1)O[C@@H](CN(C)CC1CCCC1)[C@H](C)CN([C@H](C)CO)S2(=O)=O
9.2,-52.9[16.7 µM],C[C@H](CO)N1C[C@H](C)[C@H](CN(C)S(=O)(=O)c2ccc(Cl)cc2)OCCCC[C@H](C)Oc2ccc(NC(=O)Nc3ccc(F)cc3)cc2C1=O
-8.5&-14.7,-11.4[16.7 µM],C[C@H](CO)N1C[C@H](C)[C@@H](CN(C)Cc2ccc(C(=O)Nc3ccccc3N)cc2)Oc2ccc(NC(=O)Cn3cnnn3)cc2C1=O
-2.1,-12.7[16.7 µM],COc1ccccc1-c1cn(CC[C@@H]2CC[C@@H](NC(=O)Cc3ccccn3)[C@@H](CO)O2)nn1
-3.4,-50.2[16.7 µM],O=C(Nc1ccccc1)N[C@@H]1CC[C@H](CCNC(=O)c2ccccc2F)O[C@H]1CO
7.0,0.8[16.7 µM],CN(C)CC(=O)N[C@@H]1C=C[C@H](CC(=O)NCc2ccccc2F)O[C@H]1CO
-18.2,-0.5[16.7 µM],C[C@H]1CN([C@@H](C)CO)C(=O)c2cc(-c3ccc(F)cc3)cnc2O[C@H]1CN(C)C(=O)c1ccccn1
-8.3,-9.1[16.7 µM],O=C(CN1CCOCC1)N[C@H]1CC[C@@H](CCn2cc(C3CC3)nn2)O[C@H]1CO
7.5,20.0[16.7 µM],C[C@H](CO)N1C[C@H](C)[C@@H](CN(C)Cc2ccc(Cl)c(Cl)c2)Oc2c(NS(C)(=O)=O)cccc2C1=O
7.1,-2.8[16.7 µM],C[C@@H]1CN([C@@H](C)CO)C(=O)Cc2cc(NC(=O)Nc3ccc(F)cc3)ccc2O[C@H]1CN(C)S(=O)(=O)c1cccs1

By substructure, the entries above with a cyano group (3)
Yeast UUG start,HIV Env fusion,structure
2.5,-5.6[16.7 µM],COc1ccc(-c2ccc([C@@H]3[C@@H](C#N)N(C(=O)C4CCC4)[C@@H]3CO)cc2)cc1
13.0,12.7[16.7 µM],COc1ccccc1-c1ccc([C@H]2[C@@H](C#N)N(C(=O)C3CCC3)[C@H]2CO)cc1
7.9,-6.7[16.7 µM],CCCC#Cc1ccc([C@H]2[C@@H](C#N)N(C(=O)C3CCC3)[C@H]2CO)cc1
